HPGD inh – qHTS Assay for Inhibitors of HPGD (15-Hydroxyprostaglandin Dehydrogenase); 15-hydroxyprostaglandin dehydrogenase [NAD(+)] (Homo sapiens), P15428; purified HPGD, NADH fluorescence kinetic, PGE2 substrate; Potency, µM, inactives show at the top dose activity change, negative = inhibition, hits mostly inhibitors; 150,000 tested, 4.3% active; AID 894, 2007; active = well fitted inhibition curve with a large enough effect (not every such curve was filed as active); inconclusive = small, poorly fitted or top-dose-only effect, or another doubt; inactive = no such curve, though single readings can be large or run the other way;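 further: top concentration of the series not given in the record; plate controls included wells without enzyme; inactives centre near -10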
Target sequence (P15428 whole entry, looked up): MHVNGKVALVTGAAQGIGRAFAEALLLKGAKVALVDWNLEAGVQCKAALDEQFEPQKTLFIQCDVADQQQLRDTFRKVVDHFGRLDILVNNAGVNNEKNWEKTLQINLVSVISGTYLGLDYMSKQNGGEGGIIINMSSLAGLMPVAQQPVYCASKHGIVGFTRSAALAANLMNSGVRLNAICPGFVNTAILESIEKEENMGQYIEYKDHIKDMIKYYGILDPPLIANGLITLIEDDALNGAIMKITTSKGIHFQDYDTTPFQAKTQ
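NADH formation kinetics: reaction with 30 uM PGE2 and 1 mM NAD+ (final), 20 nM enzyme, Tris-HCl pH 8 with Tween 20, after 15 min compound preincubation at room temperature. Fluorescence change, last versus first of five reads.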
Active calls of the source: *; ? = inconclusive; & = joins results of further samples; [ ] = remark or other dose. On the % scale 0 is the no-effect control and ±100 the full control effect; potency means the concentration at half of the fitted maximal effect. This is a subset, so the mix of outcomes need not match the whole.

SMILES	HPGD inh
Cc1ccc(N=CC=C2OC(C)(C)C(C)(C)O2)cc1	-6.1%
Cc1ccc2c(c1)CCCN2C(=O)c1ccco1	-5.4%
Cc1c(NS(=O)(=O)c2cccc3nsnc23)c(=O)n(-c2ccccc2)n1C	-14.7%
CCOc1ccc(C2C(C(=O)Nc3ccc(F)cc3)=C(C)Nc3nc(CCCO)nn32)cc1 (stereo not drawn)	-5.8%
CCOC(=O)Nc1ccc(S(=O)(=O)NCc2ccccc2)cc1	-14.7%
CC(C)Cn1c(=O)c(C(=O)Nc2ccccc2S(N)(=O)=O)c(O)c2ccccc21	-8.6%
O=C1c2ccccc2CN1CCNS(=O)(=O)c1ccc(Cl)cc1	-1.6%
Cc1csc(NC(=O)CSc2nnc3c4ccccc4nc(C(C)(C)C)n23)n1	-4.3%
CC(C)=C1C2CCC1C(C(=O)NCCc1ccccc1)C2C(=O)O (stereo not drawn)	-7.6%
CCOC(=O)c1oc2c(c1C)/C(=N/O)CCC2	-7.2%
CCOC(=O)c1c(C=O)c(C)n(Cc2ccccc2Cl)c1C	-8.7%
O=C(COc1ccc(Br)cc1)NCc1ccccn1	-3.3%
Cc1nn(Cc2ccc(Cl)c(Cl)c2)c(C)c1NC(=O)c1cc(-c2ccco2)on1	-8.4%
CCOC(=O)/C(N=Nc1sc(C(=O)OCC)c(C)c1C(=O)OCC)=C(\C)O	-2.1%
CCc1nc(N[C@@H](CC(C)C)C(=O)O)c2oc3ccccc3c2n1	-9.1%
CC(C)(C)OC(=O)NC(CCNC=C1C(=O)OC(C)(C)OC1=O)C(=O)O (stereo not drawn)	-7.6%
CCC(c1nnnn1CCc1ccccc1)N1CCN(C(=O)c2ccco2)CC1 (stereo not drawn)	-11.4%
O=C(c1ccc(NC(=S)Nc2ccc(Cl)c(Cl)c2)cc1)N1CCCC1	11.2µM*
CS(=O)(=O)N1CCN(C(=O)c2ccc(-c3ccccc3)cc2)CC1	-11.1%
CNC(=O)Nc1cc(C(C)(C)C)no1	-17.8%
Cc1ccc(C(=O)NCCCn2ccnc2)cc1[N+](=O)[O-]	-10.8%
CCC(C)c1ccc(S(=O)(=O)N2CCN(C(=O)COc3ccc4c(C)cc(=O)oc4c3)CC2)cc1 (stereo not drawn)	?
Cc1[nH]n(-c2ccc([N+](=O)[O-])cc2)c(=O)c1C=NCCc1c[nH]c2ccccc12	-12.8%
CSc1nc(-c2ccco2)nn1S(=O)(=O)c1ccccc1	14.1µM*
NS(=O)(=O)c1ccc(CCNc2nc3c(-c4cccc(F)c4)nnn3c3ccccc23)cc1	?
CC(OC(=O)c1nc(-c2ccccc2)n(-c2ccccc2)n1)C(=O)Nc1cc(Cl)cc(Cl)c1 (stereo not drawn)	-16.8%
CCC(C)NC(=O)Cn1cnc2sc(C)cc2c1=O (stereo not drawn)	-4.7%
COc1ccc(C(=O)/C=C/c2ccc(OC)c(O)c2)c(F)c1	31.6µM*
CC/C(O)=C1\C(=O)CC(c2ccccc2)CC1=NC(C)C (stereo not drawn)	-14.8%
c1csc(-c2csc(-c3cccs3)n2)c1	?
CC(C)OC(=O)Cn1nnc(-c2ccccc2)n1	-3.2%
CC(=O)c1c(OC(=O)c2ccc(C)cc2)c2ccccc2n1C	-21.5%
CCCCNc1nc(SC)nc2nc[nH]c12	-3.1%
Cc1cc(C)nc(SCc2nc3ccccc3n2C)n1	-13.0%
Fc1ccc(Nc2ncnc3sc4c(c23)CCC4)cc1	-16.3%
CSC1=C(C#N)C(c2ccc(Cl)cc2)C2=C(CC(C)(C)CC2=O)N1 (stereo not drawn)	-26.9%
NCCSCCC(=O)O	-9.8%
Cc1ccc[n+](CC(=O)Nc2cc(C(F)(F)F)ccc2Cl)c1	-14.0%
C/C(=N\NS(C)(=O)=O)c1ccc(C)cc1	-0.3%
O=C(/C=C/c1c(F)cccc1Cl)Nc1nc2ccccc2[nH]1	-8.9%
Cc1cc(C)c(C)c(OCC(=O)N2CCCCCC2)c1	-9.0%
C=CCNC(=S)NNc1ncnc2sc3c(c12)CC(C)(C)OC3	-21.4%
CCOC(=O)C1=C(N)Oc2cc(C)n(C)c(=O)c2C1c1ccncc1 (stereo not drawn)	1.5%
Cc1cc(=O)[nH]c2c1c(C)nn2-c1ccccc1	-22.1%
COc1cc(/C=C(\C#N)c2nc3ccc(C)cc3[nH]2)c([N+](=O)[O-])cc1OC	-12.1%
CC(=O)CCS(=O)(=O)c1ccc(C)c(C)c1	-9.6%
CCCCNC(=O)COC(=O)c1ccc(NS(=O)(=O)c2ccc3c(c2)OCCO3)cc1	-19.0%
C=CCn1c(=NC(=O)c2cc(-c3cccs3)nc3ccccc23)sc2cc(S(N)(=O)=O)ccc21	?

Six of the compounds above, in markdown:
| mol | HPGD inh |
| --- | --- |
| O=C(/C=C/c1c(F)cccc1Cl)Nc1nc2ccccc2[nH]1 | -8.9% |
| Cc1cc(C)c(C)c(OCC(=O)N2CCCCCC2)c1 | -9.0% |
| C=CCNC(=S)NNc1ncnc2sc3c(c12)CC(C)(C)OC3 | -21.4% |
| CCOC(=O)C1=C(N)Oc2cc(C)n(C)c(=O)c2C1c1ccncc1 (stereo not drawn) | 1.5% |
| Cc1cc(=O)[nH]c2c1c(C)nn2-c1ccccc1 | -22.1% |
| COc1cc(/C=C(\C#N)c2nc3ccc(C)cc3[nH]2)c([N+](=O)[O-])cc1OC | -12.1% |

Two entries from above, with values ahead of the structure:
HPGD inh,compound
?,C=CCn1c(=NC(=O)c2cc(-c3cccs3)nc3ccccc23)sc2cc(S(N)(=O)=O)ccc21
-14.0%,Cc1ccc[n+](CC(=O)Nc2cc(C(F)(F)F)ccc2Cl)c1

Continued:
SMILES	HPGD inh
Cn1c(=O)cc(-c2ccccc2)c2ccccc21	-28.9%
CCOC(=O)C(C)(C)Oc1ccc(Cl)cc1	-11.3%&-7.8%&-3.0%
Cc1cc(C)cc(NC(=O)c2ccccc2CC[N+](=O)[O-])c1	-17.6%
COc1ccc(C)cc1-n1c(SCC(=O)Nc2cc(C)on2)nc2sc(C)c(C)c2c1=O	-7.8%
Cc1ccc(C)c(CSc2nc3ccncc3n2CC(=O)Nc2ccc(C)c(C)c2)c1	-24.2%
CC(/C=N/N1CCN(c2ccccn2)CC1)=C\c1ccccc1	-2.9%
O=C(CN1CCC(C(O)(c2ccccc2)c2ccccc2)CC1)Nc1cc(Cl)ccc1Cl	-11.8%
O=C(Cc1ccc(S(=O)(=O)N2CCCCC2)s1)Nc1ccc(F)c(F)c1	-11.2%
COC(=O)C1CCN(C(=O)c2cc(OC)c(OC)c(OC)c2)CC1	-2.1%
CSc1nc(C)cc(-n2cc(F)c(=O)[nH]c2=O)n1	14.1µM*
COc1ccc(OC)c(Nc2ncnc3sc(-c4ccccc4)cc23)c1	?
CCc1cccc2c(SCC(=O)NCC3CCCO3)nc(-c3ccc(F)cc3)nc12 (stereo not drawn)	-15.4%
CC1CCC(NC(=O)CN2C(=O)COc3ccc(S(=O)(=O)N4CCCC4)cc32)CC1 (stereo not drawn)	-2.8%
COc1ccc(OC)c(CN2CCCC(CO)C2)c1 (stereo not drawn)	-11.5%
CN(C(=O)c1cnccn1)c1nnc(-c2cnccn2)s1	-10.9%
COC(=O)CSc1cc([N+](=O)[O-])cc2c1c(C1OCCO1)nn2-c1ccccc1	-7.7%
Nc1nsc2ccccc12	-28.5%
COc1ccc(N2CCN(c3oc(COc4ccccc4)nc3C#N)CC2)cc1	-11.7%
Cc1ccc(C(=O)N[C@H](C(=O)OCC(=O)c2ccc[nH]2)C(C)C)cc1	-8.4%
CCCCCN(C(=O)CN(C)Cc1ccc(OC)cc1OC)c1c(N)n(CCCC)c(=O)[nH]c1=O	1.3%
O=C(N/N=C\c1ccc(F)cc1)c1csnn1	-6.5%
COc1ccc2c(=O)c(-c3nc(C)cs3)coc2c1	-2.0%
Cc1ccc(-n2c(C3CC3c3ccc(Cl)cc3)n[nH]c2=S)cc1 (stereo not drawn)	8.91µM*
CCOc1nc(Nc2ccc(OC)c(Cl)c2)nc(N2CCN(c3ccc(OC)cc3)CC2)n1	-13.0%
COc1ccc(S(=O)(=O)Nc2cccc(N(C)S(C)(=O)=O)c2)cc1C	-15.9%
COc1ccc(N(CC(=O)Nc2cc(OC)ccc2OC)S(C)(=O)=O)cc1	-14.1%
Cc1ccc(CCN2C(=O)CCC2(C)C(=O)NCc2cccnc2)cc1 (stereo not drawn)	-5.4%
COc1cccc(-n2nc(-c3ccnn3-c3ccccc3)c(=O)n(C)c2=O)c1	-10.0%
O=C(N/N=C/c1cccc(F)c1)NC1CCCCC1	-10.2%
O=C(NC1CCCCC1)c1sc(N2CCOCC2)nc1-c1ccccc1	27.9%
COc1ccccc1NC(=O)CSc1nc2ccccc2cc1Cc1ccccc1	-12.7%
COc1ccccc1NC(=S)NC(=O)c1ccc(-c2ccc(Cl)cc2)o1	-2.4%
Cc1c(Cc2ccccc2)c(=O)oc2cc(OCC(=O)c3ccccc3)ccc12	115.4%[activator]
CCn1cc(C(=O)N2CCOCC2)c(=O)c2cc(S(=O)(=O)N(C)C)ccc21	-11.7%
C/C(=N\NC(=O)c1ccc(Cn2cc([N+](=O)[O-])cn2)o1)c1cccc(NC(=O)C(C)C)c1	-5.5%
COc1cc(OC)cc(C(=O)NCc2nc(-c3ccccc3)no2)c1	1.7%
CC1=CC(=O)C=C(C)C1=NOc1ccccc1[N+](=O)[O-]	-16.5%
O=C(CSc1nc(-c2ccco2)cc(C(F)(F)F)n1)Nc1ccc2c(c1)CCC2	-19.7%
O=C(Nc1cccnc1)c1cc(F)cc(F)c1	-2.0%
O=C(Nc1ccccn1)C12CC3CC(C1)CC(C(=O)Nc1ccccn1)(C3)C2	3.2%
Cc1cccnc1NC(=O)CCCN1C(=O)c2ccccc2C1=O	-5.3%
COc1cc2c(cc1NC(=O)/C=C/c1cc(OC)c(OC)c(OC)c1)oc1ccccc12	-22.8%
CC(=O)Nc1ccc(S(=O)(=O)Oc2ccc3c(c2)C(C)=CC(C)(C)N3)cc1	-28.2%
CCCn1c(=O)c2[nH]c(-c3ccccc3)nc2n(CCC)c1=O	-19.8%
N/C(=N\O)c1ccc(NC(=O)c2ccc(Br)o2)cc1	-8.4%
COC(=O)c1ccc(C(NC(=O)OCc2ccccc2)/C(C)=C/[C@@H](C)C(=O)N(C)Cc2cccnc2)cc1 (stereo partly drawn)	-10.9%
O=C(N/N=C/c1ccc([N+](=O)[O-])o1)c1cc(-c2cccc(Br)c2)nc2ccccc12	-15.9%
O=C(CN1CCC(C(=O)c2cccc(F)c2)CC1)NCc1cccs1	-0.9%
Cc1ccc(C)c(-n2c(CNC(=O)c3ccco3)nnc2SCC(=O)N2CCc3ccccc32)c1	-8.0%
O=C(O)c1ccc2c(c1)-c1nc3ccccc3n1C2=O	?
CCOC(=O)c1nnc(-c2ccc(C)cc2)nc1Oc1ccccc1Cl	-17.1%
O=C(CSc1nc2ccccc2c(=O)n1-c1ccc(Cl)cc1)c1ccco1	-5.5%
COC(=O)[C@@H]1C[C@H]2CC[C@H](O)C[C@H]2N1Cc1ccc(-c2ccccc2)cc1	-10.4%
O=C(c1ccc(COCC(F)(F)F)o1)N1CCCCCC1	-6.9%
CCOc1ccc(NC(=O)Cn2nnc(C(=O)NCc3ccccc3OC)c2N)cc1	-5.6%
NCCCCN	-7.8%&-7.4%
Cc1cc(N2CCN(C(=O)c3ccco3)CC2)n2nc(-c3cccc(F)c3)cc2n1	?
C[C@H](O)CON1C(=O)c2ccccc2C1=O	-3.3%
O=C(/C=C/c1ccccc1F)c1cccc([N+](=O)[O-])c1	-18.3%
CCC(C)NC(=O)c1cc(OC)c(OC)c(OC)c1 (stereo not drawn)	-0.9%

Carrying on:
SMILES	HPGD inh
Cc1ccc(-c2noc(CCC(=O)NCCN3CCN(Cc4ccccc4)CC3)n2)cc1	-0.9%
O=C(CCCN1CCC(c2ccccc2)C1)c1ccc2c(c1)OCCO2 (stereo not drawn)	-3.5%
CCc1ccccc1NC(=O)c1cnc2scc(C)n2c1=O	?
Cc1ccc(C(C(=O)NC2CCCC2)N(Cc2ccc3c(c2)OCO3)C(=O)Cc2cccs2)cc1 (stereo not drawn)	-4.1%
CCn1cc(C(=O)NCc2ccco2)c(=O)c2cc(S(=O)(=O)N3CCC(C)CC3)ccc21	-21.0%
COc1ccc(CNC(=O)COC(=O)c2c[nH]c(=O)[nH]c2=O)cc1OC	-5.0%
O=C(NCc1ccccn1)C1CCN(S(=O)(=O)c2ccccc2)CC1	-0.6%
Cc1cc(C)nc(NS(=O)(=O)c2ccc(N3Cc4ccccc4C3=O)cc2)n1	-15.7%
Cc1ccc2cc(CN(CC3CCCO3)S(=O)(=O)c3ccccc3)c3nnnn3c2c1 (stereo not drawn)	-20.2%
CC1CCN(CC(O)COc2ccc(F)cc2)CC1 (stereo not drawn)	-3.7%
Cc1cc(C)nc(N2CCC(C(=O)NCCc3ccc(F)cc3)CC2)n1	-24.4%
CCC1CCCCN1C(=O)CSc1nnc(-c2ccc(Cl)s2)o1 (stereo not drawn)	-21.6%
C=CCn1c(SCC)nc(O)cc1=O	-6.7%
Cc1cc(=O)c2c(O)c(O)ccc2o1	-18.5%
CC(C)NC(=O)N1CCC2(CC1)CCN(C(=O)c1ccco1)CC2	-0.2%
CCOC(=O)c1c(NC(=O)C(=O)N/N=C/c2ccccc2O)sc2c1CCCCC2	-20.0%
CN1CCC2(CC1)CCN(C(=O)c1cc(C(F)(F)F)cc(C(F)(F)F)c1)CC2	-9.0%
COc1ccc(C(CNC(=O)c2ccc3c(c2)C(=O)N(CCC(C)C)C3=O)N2CCOCC2)cc1 (stereo not drawn)	-4.4%
O=C1c2ccccc2C(=O)c2c1ncn2-c1ccccc1	-5.8%
Fc1ccc(N/N=C/C=C/c2ccccc2)c(F)c1	?
O=C(OCn1nnc2ccccc2c1=O)C1CCN(S(=O)(=O)c2cccs2)CC1	-7.6%

Screening data from PubChem.
